Screens deposited in PubChem BioAssay by Broad Institute.
Env fusion inh = inhibitors of HIV-1 Env-driven cell-cell fusion, primary screen, HeLa-JRFL effector, CEM21 target cells, luciferase; inhibition, % at 12.3 µM; hit rate 1.1% among 360,000;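 active means mean replicate inhibition score of at least 50 and every replicate individually at or above 50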;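 further: 0% = plate neutral controls and 100% = maraviroc near 300 nM; one replicate is shown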
UUG fidelity = modulators of yeast start codon fidelity, primary screen, whole organism, S. cerevisiae, single point, plate reader; S. cerevisiae UUG-firefly luciferase reporter, luminescence/redox ratio; activity score, % at 18.7 µM; hit rate 0.13% among 350,000; AID 602363, 2012;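 active means replicate mean at a twofold rise or more, about +100% in these data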;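 further: firefly luciferase made from a UUG start codon reports start codon fidelity; reporter light over untreated wells divided by growth signal over untreated wells; some hits fall short of that in this replicate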
* = called active by the depositor; [ ] = remark or other dose. A portion of the library, so the mix of outcomes need not match the whole.

SMILES	Env fusion inh	UUG fidelity
COc1ccc(CN(C)C[C@@H]2OCCCC[C@H](C)Oc3ccc(NS(=O)(=O)c4ccc(Cl)cc4)cc3C(=O)N([C@H](C)CO)C[C@@H]2C)cc1	12[16.7 µM]	-4
C[C@@H]1CN([C@H](C)CO)C(=O)Cc2cc(NC(=O)Cn3cnnn3)ccc2O[C@@H]1CN(C)S(=O)(=O)c1cn(C)cn1	-9[16.7 µM]	-10
COCC#Cc1cnc2c(c1)C(=O)N([C@@H](C)CO)C[C@H](C)[C@@H](CN(C)C(=O)CN1CCOCC1)O2	-17[16.7 µM]	0
COc1ccc(NC(=O)N[C@@H]2C=C[C@@H](CC(=O)NC3CCC3)O[C@H]2CO)cc1	1[16.7 µM]	-7
COc1cccc(NC(=O)Nc2ccc3c(c2)C(=O)N(C)[C@@H]2CC[C@H](CC(=O)O)O[C@@H]2CO3)c1	14[16.7 µM]	-1
CCNC(=O)C[C@H]1CC[C@H]2[C@H](COc3ccc(NC(=O)c4ccc(C(F)(F)F)cc4)cc3C(=O)N2C)O1	-13[16.7 µM]	-3
Cc1noc(C)c1NC(=O)N(C)C[C@H]1OCCCC[C@@H](C)Oc2ccc(NC(=O)C3CCCCC3)cc2C(=O)N([C@H](C)CO)C[C@@H]1C	15[16.7 µM]	4
C[C@@H]1CN([C@H](C)CO)C(=O)c2cc(NS(C)(=O)=O)ccc2O[C@@H](C)CCCCO[C@@H]1CN(C)S(=O)(=O)c1cccs1	-21[16.7 µM]	-2
C[C@H](CO)N1C[C@H](C)[C@@H](CN(C)S(=O)(=O)c2ccc(F)cc2)OCCCC[C@H](C)Oc2ccc(NC(=O)NC3CCCCC3)cc2C1=O	-10[16.7 µM]	-8
C[C@@H]1CN([C@H](C)CO)C(=O)c2cc(NS(C)(=O)=O)ccc2O[C@@H](C)CCCCO[C@@H]1CN(C)S(=O)(=O)c1ccc(F)cc1	6[16.7 µM]	25
Cc1noc(C)c1NC(=O)Nc1ccc2c(c1)C(=O)N([C@@H](C)CO)C[C@H](C)[C@H](CN(C)C(=O)NC(C)C)OCCCC[C@H](C)O2	-12[16.7 µM]	9
O=C(N[C@@H]1CC[C@H](CCn2cc(Cc3ccccc3)nn2)O[C@@H]1CO)c1ccccn1	-27[16.7 µM]	-16
C[C@@H]1CN([C@H](C)CO)S(=O)(=O)c2ccc(C#CCC3CCCC3)cc2O[C@H]1CN(C)C(=O)c1ccccn1	39[16.7 µM]	15
CCS(=O)(=O)Nc1ccc2c(c1)C(=O)N(C)[C@H]1CC[C@H](CC(=O)N3CCOCC3)O[C@@H]1CO2	7[16.7 µM]	-10
CO[C@H]1CN(C)C(=O)c2ccc(NC(=O)C3CC3)cc2OC[C@@H](C)N(C(=O)c2ccccc2F)C[C@H]1C	15[16.7 µM]	-2
Cc1noc(C)c1NC(=O)Nc1ccc2c(c1)CC(=O)N([C@@H](C)CO)C[C@H](C)[C@@H](CN(C)Cc1ccc(C(=O)O)cc1)O2	2[16.7 µM]	-15
C[C@H](CO)N1C[C@H](C)[C@H](CN(C)Cc2ccc3c(c2)OCO3)Oc2c(NS(=O)(=O)c3cn(C)cn3)cccc2C1=O	9[16.7 µM]	-18
C[C@H](CO)N1C[C@H](C)[C@H](CN(C)C(=O)Nc2ccccc2)OCCCC[C@H](C)Oc2ccc(NC(=O)Nc3ccc(F)cc3)cc2C1=O	-29[16.7 µM]	2
C[C@H](CO)N1C[C@H](C)[C@@H](CN(C)Cc2ccc(-c3ccccc3)cc2)Oc2ccc(NS(=O)(=O)c3ccccc3)cc2C1=O	12[16.7 µM]	0
O=C(NCC[C@H]1CC[C@H](NC(=O)C2CC2)[C@H](CO)O1)c1cnccn1	-2[16.7 µM]	-14
COc1ccc(NC(=O)N(C)C[C@H]2Oc3ccc(NC(=O)Nc4c(C)noc4C)cc3CC(=O)N([C@@H](C)CO)C[C@H]2C)cc1	-41[16.7 µM]	-8
Cc1ccc(S(=O)(=O)N(C)C[C@@H]2Oc3c(NC(=O)Nc4ccc(C(F)(F)F)cc4)cccc3C(=O)N([C@H](C)CO)C[C@@H]2C)cc1	0[16.7 µM]	-6
COCC#Cc1ccc2c(c1)O[C@@H](CN(C)S(=O)(=O)c1cccc(F)c1)[C@H](C)CN([C@H](C)CO)S2(=O)=O	18[16.7 µM]	8
C[C@@H](O)C#Cc1ccc2c(c1)O[C@H](CN(C)Cc1ccccc1)[C@@H](C)CN([C@@H](C)CO)S2(=O)=O	-15[16.7 µM]	-3
O=C(NCC[C@@H]1CC[C@H](NS(=O)(=O)c2ccc(F)cc2)[C@H](CO)O1)Nc1ccc(F)cc1	2[16.7 µM]	-8
C[C@@H]1CN([C@H](C)CO)C(=O)c2cc(-c3ccccc3F)cnc2O[C@H]1CN(C)Cc1cccc(F)c1	24[16.7 µM]	-4
O=C(C[C@H]1CC[C@@H](NS(=O)(=O)c2ccccc2F)[C@H](CO)O1)NCCCN1CCOCC1	-1[16.7 µM]	-1
CNC[C@H]1Oc2c(NC(=O)NC3CCCCC3)cccc2C(=O)N([C@@H](C)CO)C[C@H]1C	-10[16.7 µM]	5
CC(C)NC(=O)N(C)C[C@H]1Oc2ncc(-c3cncnc3)cc2C(=O)N([C@@H](C)CO)C[C@@H]1C	0[16.7 µM]	-13
C[C@@H]1CN([C@@H](C)CO)C(=O)c2cc(NC(=O)c3ccncc3)ccc2O[C@@H]1CN(C)Cc1ccncc1	86*[16.7 µM]	0
CCC(=O)N(C)C[C@@H]1Oc2ncc(C#CC3(O)CCCC3)cc2C(=O)N([C@@H](C)CO)C[C@H]1C	1[16.7 µM]	70
COc1ccccc1S(=O)(=O)N[C@@H]1CC[C@H](CCNC(=O)C2CCCCC2)O[C@@H]1CO	-11[16.7 µM]	-7
COC(=O)C[C@@H]1CC[C@H]2[C@H](COc3ccc(NC(=O)Nc4ccccc4C)cc3C(=O)N2C)O1	-4[16.7 µM]	0
C[C@H](CO)N1C[C@H](C)[C@H](CN(C)S(=O)(=O)c2ccccc2)Oc2ccc(NS(=O)(=O)c3ccc(F)cc3)cc2CC1=O	58*[16.7 µM]	23
O=C(C[C@@H]1C=C[C@@H](NC(=O)c2ccc3c(c2)OCO3)[C@H](CO)O1)NCc1ccc(F)cc1	16[16.7 µM]	-19
O=C(C[C@@H]1CC[C@@H](NC(=O)C2CC2)[C@@H](CO)O1)NCC1CC1	9[16.7 µM]	0
CN1C(=O)c2cc(NS(=O)(=O)c3ccc(Cl)cc3)ccc2OC[C@@H]2O[C@H](CC(=O)N3CCc4ccccc4C3)CC[C@@H]21	-2[16.7 µM]	2
O=C(C[C@@H]1CC[C@H](NC(=O)Nc2ccc(C(F)(F)F)cc2)[C@H](CO)O1)NCc1ccccn1	25[16.7 µM]	-9
C[C@H](CO)N1C[C@H](C)[C@@H](CN(C)C(=O)c2ccccc2F)Oc2ncc(C#Cc3ccccc3)cc2C1=O	12[16.7 µM]	-10
COc1ccc(C(=O)Nc2ccc3c(c2)OC[C@@H](C)N(C)C[C@@H](C)[C@@H](OC)CN(C)C3=O)cc1	16[16.7 µM]	0

An excerpt of these results, field by field.
molecule: O=C(C[C@H]1CC[C@@H](NS(=O)(=O)c2ccccc2F)[C@H](CO)O1)NCCCN1CCOCC1
  Env fusion inh: -1[16.7 µM]; UUG fidelity: -1
molecule: CNC[C@H]1Oc2c(NC(=O)NC3CCCCC3)cccc2C(=O)N([C@@H](C)CO)C[C@H]1C
  Env fusion inh: -10[16.7 µM]; UUG fidelity: 5
molecule: CC(C)NC(=O)N(C)C[C@H]1Oc2ncc(-c3cncnc3)cc2C(=O)N([C@@H](C)CO)C[C@@H]1C
  Env fusion inh: 0[16.7 µM]; UUG fidelity: -13
molecule: C[C@@H]1CN([C@@H](C)CO)C(=O)c2cc(NC(=O)c3ccncc3)ccc2O[C@@H]1CN(C)Cc1ccncc1
  Env fusion inh: 86*[16.7 µM]; UUG fidelity: 0

Single records, as listed above:
COC(=O)C[C@@H]1CC[C@H]2[C@H](COc3ccc(NC(=O)Nc4ccccc4C)cc3C(=O)N2C)O1 is listed with Env fusion inh: -4[16.7 µM]; UUG fidelity: 0
O=C(NCC[C@@H]1CC[C@H](NS(=O)(=O)c2ccc(F)cc2)[C@H](CO)O1)Nc1ccc(F)cc1 is listed with Env fusion inh: 2[16.7 µM]; UUG fidelity: -8
O=C(C[C@@H]1CC[C@H](NC(=O)Nc2ccc(C(F)(F)F)cc2)[C@H](CO)O1)NCc1ccccn1 is listed with Env fusion inh: 25[16.7 µM]; UUG fidelity: -9

Remaining list, next part:
SMILES	Env fusion inh	UUG fidelity
N#C[C@@H]1[C@H](c2ccc(C3=CCCCC3)cc2)[C@@H](CO)N1C(=O)c1ccccn1	6[16.7 µM]	6
COc1cccc(-c2ccc3c(c2)O[C@@H](CN(C)C(=O)C2CCC2)[C@H](C)CN([C@@H](C)CO)S3(=O)=O)c1	-10[16.7 µM]	-17
C[C@H](CO)N1C[C@H](C)[C@H](CN(C)S(=O)(=O)c2ccc(C#N)cc2)Oc2ncc(-c3cccc(C(F)(F)F)c3)cc2C1=O	7[16.7 µM]	8
C[C@@H]1CN([C@@H](C)CO)C(=O)c2cc(C3=CCCC3)cnc2O[C@@H]1CN(C)Cc1ccccn1	-1[16.7 µM]	-24
C[C@@H]1CCCCO[C@@H](CN(C)C)[C@@H](C)CN([C@H](C)CO)C(=O)c2cc(NC(=O)C3CCCCC3)ccc2O1	2[16.7 µM]	1
C[C@H](CO)N1C[C@H](C)[C@@H](CN(C)C(=O)CCC(F)(F)F)OCCCC[C@H](C)Oc2ccc(NS(=O)(=O)c3ccc(F)cc3)cc2C1=O	-87[16.7 µM]	11
C[C@H](CO)N1C[C@H](C)[C@@H](CN(C)C(=O)c2ccccc2)Oc2cc(/C=C/c3ccccc3)ccc2S1(=O)=O	-51[16.7 µM]	-7
C[C@H](O)C#Cc1cnc2c(c1)C(=O)N([C@@H](C)CO)C[C@@H](C)[C@H](CN(C)CC1CCCC1)O2	21[16.7 µM]	-3
O=C(N[C@H]1CC[C@@H](CCn2cc(-c3ccccn3)nn2)O[C@@H]1CO)c1ccccc1	1[16.7 µM]	-3
COc1ccccc1-c1cn(CC[C@@H]2CC[C@H](NS(=O)(=O)c3ccccc3C)[C@@H](CO)O2)nn1	-1[16.7 µM]	4
CC(=O)N(C)C[C@H]1Oc2cc(C#CC(C)C)ccc2S(=O)(=O)N([C@@H](C)CO)C[C@@H]1C	-11[16.7 µM]	-1
COCC(=O)N(C)C[C@@H]1Oc2cc(-c3cccnc3)ccc2S(=O)(=O)N([C@@H](C)CO)C[C@@H]1C	-2[16.7 µM]	-10
CC(=O)N(C)C[C@@H]1Oc2cc(C#CC(C)(C)O)ccc2S(=O)(=O)N([C@@H](C)CO)C[C@H]1C	-6[16.7 µM]	1
C[C@@H]1CCCCO[C@H](CN(C)S(=O)(=O)c2cccs2)[C@H](C)CN([C@@H](C)CO)C(=O)c2cc(NC(=O)CCCN(C)C)ccc2O1	-11[16.7 µM]	-3
C/C=C/c1cnc2c(c1)C(=O)N([C@H](C)CO)C[C@H](C)[C@@H](CN(C)CC1CCOCC1)O2	3[16.7 µM]	-6
C[C@H](CO)N1C[C@H](C)[C@H](CN(C)CC2CCCCC2)Oc2ccc(NC(=O)Cn3cnnn3)cc2C1=O	-8[16.7 µM]	-4
COc1ccc(S(=O)(=O)N(C)C[C@H]2Oc3ccc(NS(=O)(=O)c4c(C)noc4C)cc3CC(=O)N([C@H](C)CO)C[C@H]2C)cc1	0[16.7 µM]	18
Cc1noc(C)c1NC(=O)Nc1ccc2c(c1)C(=O)N([C@H](C)CO)C[C@@H](C)[C@H](CN(C)Cc1ccc(Cl)c(Cl)c1)OCCCC[C@@H](C)O2	34[16.7 µM]	11
CN(C)Cc1cn(CC[C@@H]2CC[C@@H](NS(=O)(=O)c3ccccc3)[C@H](CO)O2)nn1	10[16.7 µM]	0
C[C@@H]1CN([C@@H](C)CO)C(=O)c2cc(C#CCN(C)C)cnc2O[C@@H]1CN(C)C(=O)NC1CCCCC1	14[16.7 µM]	10
COc1cccc(NC(=O)Nc2ccc3c(c2)C(=O)N(C)C[C@@H](OC)[C@@H](C)CN[C@@H](C)CO3)c1	3[16.7 µM]	17
Cc1ccc(S(=O)(=O)N(C)C[C@H]2Oc3ccc(NC(=O)Cc4ccccc4)cc3CC(=O)N([C@H](C)CO)C[C@@H]2C)cc1	8[16.7 µM]	6
COc1ccc(NC(=O)Nc2ccc3c(c2)C(=O)N([C@@H](C)CO)C[C@@H](C)[C@H](CN(C)Cc2ccc(C(=O)O)cc2)OCCCC[C@@H](C)O3)cc1	-29[16.7 µM]	2
O=C(N[C@H]1CC[C@H](CCn2cc(-c3ccccc3)nn2)O[C@@H]1CO)c1cnccn1	9[16.7 µM]	-9
C[C@@H]1CN([C@@H](C)CO)C(=O)Cc2cc(NC(=O)Nc3ccc(F)cc3)ccc2O[C@@H]1CN(C)S(=O)(=O)c1cccs1	-2[16.7 µM]	-2
C[C@H](CO)N1C[C@H](C)[C@@H](CN(C)S(=O)(=O)c2ccccc2)Oc2ncc(C#CCN(C)C)cc2C1=O	-20[16.7 µM]	11
C[C@@H]1CCCCO[C@@H](CN(C)Cc2ccc(C(F)(F)F)cc2)[C@@H](C)CN([C@@H](C)CO)C(=O)c2cc(NC(=O)C3CCCCC3)ccc2O1	14[16.7 µM]	21
